GALR2 agonist: GALR2 (human) receptor agonism | GALR2-expressing cells, agonist activation read-out | activation, %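 (tested at 5 µM)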 | actives 0.48% (n = 140,000);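 active = above mean plus 3 SD of all compounds, about 5% in these data, not always enough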;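 note: 0% = vehicle buffer wells and 100% = reference agonist at full effect; tested in CHO reporter cells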
Target sequence (O43603 whole entry, looked up): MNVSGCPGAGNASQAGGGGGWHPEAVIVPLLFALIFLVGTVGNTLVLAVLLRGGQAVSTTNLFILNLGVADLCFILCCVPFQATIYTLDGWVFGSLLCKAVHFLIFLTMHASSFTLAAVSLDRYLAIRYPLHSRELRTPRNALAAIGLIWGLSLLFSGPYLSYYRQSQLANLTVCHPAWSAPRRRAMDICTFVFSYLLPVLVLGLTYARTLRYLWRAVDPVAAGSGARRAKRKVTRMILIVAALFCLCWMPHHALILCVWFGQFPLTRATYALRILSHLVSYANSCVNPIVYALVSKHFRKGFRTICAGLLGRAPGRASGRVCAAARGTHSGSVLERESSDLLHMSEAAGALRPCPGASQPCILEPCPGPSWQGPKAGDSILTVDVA
Insulin prom inh: TRM-6 insulin promoter activity inhibition; actives 0.9% (n = 130,000); inhibition, % at 2 µM; TRM-6 cells (human fetal islet line), insulin promoter-eGFP reporter, imaging; reporter expression induced with tamoxifen; AID 1273;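 active = inhibition above the mean plus 3 SD, with well images judged a real hit on visual review, cut at about 60% in these data, passing the limit was not always enough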
HSV augment: increases HSV replication in cells; HSV replication augmentation in cells, fold increase; maximum fold increase; actives 0.005% (n = 220,000); AID 1956;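 active = peak rise of 1.5-fold or more in the series; tested in PC3 cells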;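 note: first round at 10 µM; read as green reporter fluorescence; hits show the peak of a series up to 25 µM; 1 = signal of infected wells without compound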
PKD1 inh: PKD1 (human) kinase inhibition; Q15139; PKD1 kinase fluorescence polarization assay; inhibition, %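 (about 10 µM by stock and volumes)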; actives 0.056% (n = 200,000); AID 797;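 active = inhibition of 50% or more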;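 note: controls were vehicle for no effect and a reference inhibitor for full effect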
RGS16-Gao: RGS16-Galphao interaction regulator (human) | O15492+P09471 | AID 1441 | actives 0.38% (n = 220,000) | bead-based flow cytometry RGS16-Galphao binding, fluorescence; actives lie on both sides | binding response (% of control), % at 10 µM;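 active = below 25% or above 175%, edge rows of some plates excepted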;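 note: Galphao activated by GDP with aluminum fluoride before binding; 100% = wells without compound and 0% = beads without RGS; some results beyond the cut were filed as inactive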
Target sequence (O15492 whole entry, looked up): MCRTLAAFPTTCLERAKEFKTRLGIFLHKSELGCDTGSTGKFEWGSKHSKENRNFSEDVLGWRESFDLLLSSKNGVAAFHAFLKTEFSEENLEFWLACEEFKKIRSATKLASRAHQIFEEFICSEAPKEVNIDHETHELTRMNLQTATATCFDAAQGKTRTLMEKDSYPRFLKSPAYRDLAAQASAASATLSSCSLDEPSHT
Target sequence (P09471 whole entry, looked up): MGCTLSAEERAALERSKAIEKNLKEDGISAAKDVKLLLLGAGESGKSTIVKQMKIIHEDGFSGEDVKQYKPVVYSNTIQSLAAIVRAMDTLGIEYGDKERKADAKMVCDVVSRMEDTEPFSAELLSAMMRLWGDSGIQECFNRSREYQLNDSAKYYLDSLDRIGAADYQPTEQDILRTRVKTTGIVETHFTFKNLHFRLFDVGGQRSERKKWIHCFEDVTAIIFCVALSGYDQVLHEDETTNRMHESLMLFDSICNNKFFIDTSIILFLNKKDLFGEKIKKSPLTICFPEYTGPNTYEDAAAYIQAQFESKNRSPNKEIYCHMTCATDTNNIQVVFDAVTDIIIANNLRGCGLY
Insulin prom inh cell count: also measured in Insulin prom inh; calls as there; normalized cell count, %; measured here: cell count, toxicity; reference of the scale not given here;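 cells exposed to compound for 48 h; stained nuclei by imaging scaled within each plate; lower means fewer cells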
HSV augment primary fold: second read-out of HSV augment, no call of its own (marks repeat the call); fold increase; compound at 10 µM; measured here: primary screen fold increase 10 uM; tested in PC3 cells;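 GFP signal in the first replicate; 1 = infected wells without compound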
Numbers without * were called inactive; i = inactive; / = no result given.

Preview, two compounds:
Values run as follows: RGS16-Gao	Insulin prom inh cell count	HSV augment primary fold	GALR2 agonist	Insulin prom inh	HSV augment	PKD1 inh
> CCOC(=O)c1cnn(-c2ccccc2)c1-n1cccc1
→ 109	/	0.94	-1.9	/	i	0
> Cc1cc(C)n2nc(C(=O)OCC(=O)c3cc(C)n(CC4CCCO4)c3C)nc2n1 (centres undefined)
→ 107	102	0.94	/	42	i	1

This part in full (from the top)
Values run as follows: RGS16-Gao	Insulin prom inh cell count	HSV augment primary fold	GALR2 agonist	Insulin prom inh	HSV augment	PKD1 inh
> CCOC(=O)c1cnn(-c2ccccc2)c1-n1cccc1
→ 109	/	0.94	-1.9	/	i	0
> Cc1cc(C)n2nc(C(=O)OCC(=O)c3cc(C)n(CC4CCCO4)c3C)nc2n1 (centres undefined)
→ 107	102	0.94	/	42	i	1
> COc1cccc(CNCCSc2nnnn2C)c1OC
→ 104	46	0.95	-2.3	44	i	-9
> COc1ccc(N(CC(=O)Nc2ccc(S(=O)(=O)N3CCOCC3)cc2)S(=O)(=O)c2ccccc2)cc1
→ 105	97	0.83	-2.4	13	i	-6
> S=C(Nc1ccc(Cl)cc1)NC1CCCCC1
→ 96	/	0.91	/	/	i	/
> CC(C)(C)N(Cc1ccccc1)C(=O)COC(=O)Cn1cnc2ccccc2c1=O
→ 106	181	0.94	/	-9	i	3
> COc1cc(N(C(=O)Cc2cccs2)C(C(=O)NC2CCCCC2)c2cccc(OC)c2OC)ccc1-n1cnnn1 (centres undefined)
→ 24*	75	0.94	-0.7	10	i	10
> O=C1[C@@H]2Cc3c([nH]c4ccccc34)[C@@H](c3ccccc3)N2C(=O)[C@@H]2Cc3c([nH]c4ccccc34)[C@@H](c3ccccc3)N12
→ 75	81	/	-1.3	-86	/	-8
> O=C(O)c1cccc(NS(=O)(=O)c2ccc(-c3ccc(S(=O)(=O)Nc4cccc(C(=O)O)c4)cc3)cc2)c1
→ 99	/	1	/	/	i	-1
> COc1cc(OC)c2c(c1C(CCN1CCOCC1)c1ccc(N(C)C)cc1)OC(=O)CC2c1ccc(N(C)C)cc1 (centres undefined)
→ 102	/	1	/	/	i	/
> CSC1=C(C#N)C(c2cccs2)CC(=O)N1C (centres undefined)
→ /	/	/	-2.0	/	/	-5
> Cc1ccc(OC(=S)Nc2ccc(F)cc2)cc1
→ 99	72	0.98	-2.1	6	i	-11
> COCCCn1c(CCC(=O)O)ccc1-c1ccc(F)cc1
→ 91	76	0.81	-2.4	-15	i	-4
> COc1cc(OC)cc(C(=O)NC2=NCCS2)c1
→ 102	99	0.97	-2.2	-13	i	2
> Cc1c(NC(=S)N/N=C/c2ccc(Br)cc2)c(=O)n(-c2ccccc2)n1C
→ 99	/	0.93	/	/	i	/
> CC(=O)N1CCN(c2ccccc2NC(=O)c2cc(Br)ccc2Cl)CC1
→ 98	27	0.98	-1.9	-286	i	0
> CCOC(=O)Cc1csc(SCC(=O)Nc2cc(Cl)ccc2Oc2ccccc2)n1
→ 101	94	1.1	-2.1	-31	i	0
> Cc1ccc(CN2CCN(Cc3cc(=O)c4ccccc4[nH]3)CC2CCO)o1 (centres undefined)
→ 110	/	0.96	/	/	i	-8
> CC1(C)CC(C(CC(=O)N2CCCC2)Cc2ccccc2)CCO1 (centres undefined)
→ 92	/	0.97	/	/	i	/
> CCCC(C(=O)NC1=NCCS1)c1ccccc1 (centres undefined)
→ 105	99	1	/	-17	i	-2
> COc1ccc(NC(=O)CSc2nc3ncccc3[nH]2)cc1OC
→ 108	67	0.92	-1.9	0	i	3
> COc1ccc2c(c1)OC1(C)CC2C(C(=O)c2ccccc2OC)C(=O)N1 (centres undefined)
→ 102	128	/	0.4	5	/	-2
> CSc1oc(-c2ccco2)nc1S(=O)(=O)c1ccc(F)cc1
→ 100	/	0.93	-1.8	/	i	-2
> Cc1nc2[nH]c(=S)n(C)c(=O)c2nc1C
→ 104	138	0.96	0.6	17	i	0
> Cc1cc(-n2c(SCc3ccccc3F)nc3n[nH]c(C)c3c2=N)ccc1Cl
→ 102	/	0.78	/	/	i	-2
> S=C(NCc1ccccc1)NCc1ccccn1
→ 102	/	1.1	/	/	i	/
> O=C(Cc1ccc(F)cc1)N1CCN=C1SCc1ccc([N+](=O)[O-])cc1
→ 110	/	1	-0.8	/	i	-1
> CCOC(=O)Cc1nnc(Nc2ccc(C)cc2)c2ccccc12
→ 51	149	0.96	-3.0	-17	i	3
> CC(C)c1ccc(/C=C2\NC(=S)N(Cc3cccnc3)C2=O)cc1
→ 102	/	0.96	/	/	i	8
> CN1CN(C)C(c2ccncc2)=C1c1ccncc1
→ 104	/	0.99	/	/	i	/
> Nc1nonc1-n1nnc(C(=O)N/N=C/c2cc(Br)ccc2O)c1CSC1=NCCS1
→ 176	/	0.77	-0.1	/	i	-4
> COC(=O)c1nc(NC(=O)c2ccccc2Cl)n[nH]1
→ 100	129	0.9	-0.6	2	i	-2
> COc1cccc(/C=N/NC(=O)CNC(=O)COc2cccc(C)c2)c1O
→ 85	/	0.93	/	/	i	/
> CN(C)c1nc(-c2ccccc2)cc(C(F)(F)F)c1C#N
→ 104	62	1	9.6	19	i	4
> COCCCNC(c1ccccc1)c1ccncc1 (centres undefined)
→ 102	/	0.97	-1.2	/	i	-11
> O=C(CSc1nnc(CNc2ccc(Cl)cc2)n1Cc1ccccc1)NCc1ccco1
→ 104	67	0.95	-1.6	-54	i	-7
> CCCCOc1ccc(Cl)cc1CSc1nncn1N
→ -69	83	1.1	-0.5	49	i	6
> CC(C)(C)NC(=O)C(c1ccc(O)cc1)N(C(=O)CCC(=O)Nc1nccs1)c1ccc(F)cc1 (centres undefined)
→ 102	108	0.95	/	-7	i	-8
> N#CC1(NC(=O)COc2ccc3oc4ccccc4c3c2)CCCCC1
→ 42	/	1.1	0.6	/	i	5
> CC1(C)CC(NC(=O)COc2ccc([N+](=O)[O-])cc2)CC(C)(C)N1
→ 95	89	0.98	/	6	i	-2
> CCCCCN=C(C)c1c(O)c2ccccc2oc1=O
→ 104	/	1.1	-0.9	/	i	-6
> Cc1cc(C(=O)CN2C(=O)c3ccccc3C2=O)c(C)n1C1CC1
→ 100	/	1.2	0.3	/	i	5
> N/C(=N\OC(=O)/C=C/c1ccccc1)c1cccnc1
→ 108	/	1.1	/	/	i	4
> CC(C)(C)c1nc(N)nc(=O)[nH]1
→ 100	/	0.95	/	/	i	/
> CC(C)CNC(=O)CCc1nc(-c2ccccc2)no1
→ 103	/	1	/	/	i	/
> CCOC(=O)c1ncn2c1C(=O)OC2(C)C
→ 97	/	1	0.5	/	i	-14
> Cc1nc2c(-c3ccc(F)cc3)c(C)nn2c(C)c1CCC(=O)N1CCOCC1
→ 100	/	0.95	-1.1	/	i	-12
> CSc1ccccc1NC(=O)CSCc1ccc(Br)cc1
→ 101	39	/	-0.3	-16	/	4
> CC(=O)Nc1ccc(SCC(=O)OCC(=O)NC(=O)NCCC(C)C)cc1
→ 103	/	0.92	/	/	i	4
> Cc1[nH][nH]c(=O)c1C(c1c(C)[nH][nH]c1=O)c1cn(Cc2cccc3ccccc23)c2ccccc12
→ 95	/	0.98	-1.6	/	i	-2

(further entries)
Values run as follows: RGS16-Gao	Insulin prom inh cell count	HSV augment primary fold	GALR2 agonist	Insulin prom inh	HSV augment	PKD1 inh
> Cc1cccc(-n2c(-c3csc4ccccc34)n[nH]c2=S)c1
→ 105	73	0.85	-0.5	-47	i	-14
> CCOc1ccc(N(CC(=O)NN=C2CCN(C)CC2)S(C)(=O)=O)cc1
→ 99	108	1	0.7	-24	i	-7
> O=C1NC(NS(=O)(=O)c2ccccc2)(C(F)(F)F)C(=O)N1c1ccc(F)cc1 (centres undefined)
→ 103	108	0.96	-1.5	0	i	7
> CCCCOc1ccc(/C=N/NC(=O)c2csc(C)c2C)cc1
→ 105	87	0.79	-0.6	10	i	-12
> COC(=O)c1sccc1NC(=O)c1cc(-c2cccc(C)c2)nc2ccccc12
→ 97	42	0.58	-1.8	-64	i	8
> Cc1ccc(-n2c(CNC(=O)c3cccs3)nnc2SCC(=O)NO)cc1
→ 91	99	0.98	/	-44	i	-3
> COc1ccc(NC(=O)C(Cl)=C(Cl)Cl)cn1
→ 103	97	0.68	/	55	i	-7
> CC(=O)N(Cc1ccccc1)c1nc(-c2ccccc2)cs1
→ 101	/	1.1	/	/	i	4
> O=C(c1ccco1)N1N=C(c2ccc3nccnc3c2)CC1c1ccccc1 (centres undefined)
→ 101	126	0.93	/	-33	i	-7
> Oc1ccc(N2CCN(C(=S)NCc3ccccc3)CC2)cc1
→ 101	93	0.77	/	42	i	-5
> CCOC(=O)c1sc(NC(=O)CSc2nc3c(cc2C#N)CCCCC3)c(C#N)c1C
→ 97	74	1.1	-0.2	19	i	-8
> Cc1ccccc1NC(=O)c1ccc(CN(c2ccccc2)S(=O)(=O)c2ccccc2)cc1
→ 102	72	1	-1.5	-25	i	-3
> CCOc1ccc(OCC)c(NS(=O)(=O)c2cccc3nsnc23)c1
→ 98	/	0.95	-0.1	/	i	-5
> CCCCC(CC(O)COCC(C)C)C(=O)NN (centres undefined)
→ 30	68	0.97	/	-13	i	-5
> O=C(CC1Nc2ccccc2NC1=O)Nc1ccccc1 (centres undefined)
→ 99	/	/	-1.0	/	/	3
> CCOC(=O)c1c(NC(C)=O)sc2c(O)c(Br)cc(Br)c12
→ 98	81	0.92	-1.7	55	i	-11
> CCOc1ccc(/C(O)=C2/C(=O)C(=O)N(CCN(C)C)C2c2ccccc2)cc1Cl (centres undefined)
→ 103	/	1.2	0.5	/	i	2
> c1ccc(Cc2nn3c(C4COc5ccccc5O4)nnc3s2)cc1 (centres undefined)
→ 98	79	0.94	1.1	-12	i	-6
> CC[C@H](C)[C@@H]1NC(=O)c2cc([N+](=O)[O-])cc(F)c2OCC[C@@H](C(N)=O)NC(=O)[C@H](CCCCN)NC1=O
→ 100	96	1	-2.0	-45	i	-12
> O=C(COC(=O)c1cccnc1Cl)Nc1cc(S(=O)(=O)N2CCCCC2)ccc1Cl
→ 107	/	0.94	/	/	i	3

Looked up above:
`CC[C@H](C)[C@@H]1NC(=O)c2cc([N+](=O)[O-])cc(F)c2OCC[C@@H](C(N)=O)NC(=O)[C@H](CCCCN)NC1=O` – RGS16-Gao: 100
`CCCCC(CC(O)COCC(C)C)C(=O)NN` (centres undefined) – Insulin prom inh cell count: 68

Additional compounds.
Values run as follows: RGS16-Gao	Insulin prom inh cell count	HSV augment primary fold	GALR2 agonist	Insulin prom inh	HSV augment	PKD1 inh
> c1ccc(NC(=NCc2ccco2)c2ccccc2)cc1
→ 102	/	1	-0.2	/	i	4
> O=C(c1ccc(S(=O)(=O)Cc2ccccc2Cl)c([N+](=O)[O-])c1)N1CCN(c2ccccn2)CC1
→ 98	80	0.64	/	58	i	-4
> Cc1ccsc1C1C(C#N)=C(N)N(N(C)C)C2=C1C(=O)CC(C)(C)C2 (centres undefined)
→ 109	/	1.1	/	/	i	-2
> CCCn1c(=N)n(CC(=O)O)c2ccccc21
→ 110	76	0.93	-1.0	-12	i	-8
> CCOc1cc(/C=N/n2nnnc2N)ccc1OCc1c(C)no[n+]1[O-]
→ 43	88	0.93	-2.7	6	i	5
> c1ccc(-c2ncc(CSc3nncn3-c3ccccc3)s2)cc1
→ 101	112	0.95	-3.6	-13	i	2
> CCC(CC)NC(=O)CN(c1ccccc1OC)S(=O)(=O)c1cccs1
→ 95	/	1	/	/	i	/
> COc1cccc(C(=O)C[n+]2ccccc2/C=N/O)c1
→ 99	/	0.95	0.1	/	i	-11
> Cc1ccc(C)c(CSc2nnc([C@@H](N)C(C)C)o2)c1
→ 104	66	0.84	-0.5	-48	i	5
> COc1cc(/C=C2/C(=N)N3OC(C)=CC3=NC2=O)ccc1OC(=O)c1ccco1
→ 98	99	/	/	15	/	-3

An excerpt from above in order of the RGS16-Gao value, falling.
| molecule | RGS16-Gao |
| --- | --- |
| c1ccc(NC(=NCc2ccco2)c2ccccc2)cc1 | 102 |
| O=C(c1ccc(S(=O)(=O)Cc2ccccc2Cl)c([N+](=O)[O-])c1)N1CCN(c2ccccn2)CC1 | 98 |
| CCC(CC)NC(=O)CN(c1ccccc1OC)S(=O)(=O)c1cccs1 | 95 |

High-throughput results (PubChem BioAssay)

Rows were taken by chance; overall some 1.3% were active at least once.
